UUG fidelity: modulators of yeast start codon fidelity, primary screen, whole organism, S. cerevisiae, single point, plate reader; S. cerevisiae UUG-firefly luciferase reporter, luminescence/redox ratio; activity score, % at 18.7 µM; hit rate 0.13% among 350,000; AID 602363, 2012;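 active = replicate mean at a twofold rise or more, about +100% in these data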;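 note: firefly luciferase made from a UUG start codon reports start codon fidelity; reporter light over untreated wells divided by growth signal over untreated wells; some hits fall short of that in this replicate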
eIF4H inh: human eIF4H binding inhibitors, primary screen, translation initiation inhibitor project, biochemical, uHTS, fluorescence polarization; eIF4H fluorescence polarization binding assay; Eukaryotic translation initiation factor 4H (Homo sapiens), Q15056; hit rate 0.94% among 290,000; inhibition, % at 35 µM;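 active = 50% or more with normal probe brightness, or confirmed in later tests; inconclusive = above 50% with abnormal brightness, or retests that disagree; inactive = below 50% or failed in later tests; about a fifth of its hits are not listed in these tables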;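 note: calls also rest on retests at 20 µM and on dose response follow-up; 0% = protein and probe with vehicle and 100% = probe without protein; strong numbers were not always called active; many hits fall short of the cut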
PABP FP inh: PABP poly(A) RNA binding inhibitors, primary screen, biochemical, fluorescence polarization, uHTS. inhibition, % at 35 µM. AID 2014, 2009. Polyadenylate-binding protein 1 (Homo sapiens), P11940. hit rate 1% among 290,000;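 active = 50% or more with normal probe brightness, or confirmed in later tests; inconclusive = above 50% with abnormal brightness, or retests that disagree; inactive = below 50% or failed in later tests; about a fifth of its hits are not listed in these tables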;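 note: calls also rest on retests at 20 µM and on dose response follow-up; controls were probe without protein and protein plus probe with vehicle; some compounds called inactive have numbers as strong as hits; many hits fall short of the cut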
Target sequence (P11940 whole entry, looked up): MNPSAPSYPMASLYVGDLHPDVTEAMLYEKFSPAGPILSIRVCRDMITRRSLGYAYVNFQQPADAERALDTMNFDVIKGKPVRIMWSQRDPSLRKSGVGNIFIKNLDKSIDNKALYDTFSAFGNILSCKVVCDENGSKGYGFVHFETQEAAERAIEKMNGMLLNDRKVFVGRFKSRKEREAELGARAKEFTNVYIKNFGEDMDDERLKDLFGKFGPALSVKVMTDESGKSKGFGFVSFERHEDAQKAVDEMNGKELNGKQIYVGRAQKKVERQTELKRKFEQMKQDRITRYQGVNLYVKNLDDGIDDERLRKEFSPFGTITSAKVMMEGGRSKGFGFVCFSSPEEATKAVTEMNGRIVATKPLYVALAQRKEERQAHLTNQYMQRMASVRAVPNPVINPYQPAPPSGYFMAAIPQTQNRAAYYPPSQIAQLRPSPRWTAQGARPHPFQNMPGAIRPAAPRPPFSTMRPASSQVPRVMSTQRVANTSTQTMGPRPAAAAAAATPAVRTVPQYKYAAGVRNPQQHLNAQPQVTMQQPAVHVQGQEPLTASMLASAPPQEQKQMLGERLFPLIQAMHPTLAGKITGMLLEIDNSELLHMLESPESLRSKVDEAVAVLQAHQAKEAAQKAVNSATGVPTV
CSC inhib: cancer stem cell viability inhibitors, primary screen, luminescence. cancer stem cell-like cells viability. inhibition, % at 7.5 µM. hit rate 1.1% among 300,000. AID 2717, 2010;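 active = mean at 75% or more and at least half the replicates too; inconclusive = mean and replicates disagree; tested in HMLE shEcad cells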;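 note: 0% = median of negative and 100% = median of positive control wells; the first replicate is given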
Env fusion inh: inhibitors of HIV-1 Env-driven cell-cell fusion, primary screen, HeLa-JRFL effector, CEM21 target cells, luciferase; inhibition, % at 12.3 µM; hit rate 1.1% among 360,000; AID 651610, 2012;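 active = mean replicate inhibition score of at least 50 and every replicate individually at or above 50; inconclusive = only one of the two criteria met; inactive = mean below 50 and not all replicates reaching 50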;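 note: 0% = plate neutral controls and 100% = maraviroc near 300 nM; one replicate is shown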
Rce1 inh: yeast Rce1p protease inhibitors, primary screen, biochemical, fluorescence, cell-free homogeneous | CAAX prenyl protease 2 (Saccharomyces cerevisiae (strain ATCC 204508 / S288c)), Q03530 | calls only | AID 2563, 2010 | hit rate 0.27% among 290,000 | yeast membranes, quenched prenylated peptide cleavage fluorescence;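 active = fall in fluorescence gain of 50% or more versus controls, with final raw signal at or below 3038400; inconclusive = same 50% fall but final raw signal above 3038400; inactive = fall in fluorescence gain under 50%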;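 note: plate controls were neutral control wells for no effect and wells lacking membranes for full effect; tested at 10 µM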
Target sequence (Q03530 whole entry, looked up): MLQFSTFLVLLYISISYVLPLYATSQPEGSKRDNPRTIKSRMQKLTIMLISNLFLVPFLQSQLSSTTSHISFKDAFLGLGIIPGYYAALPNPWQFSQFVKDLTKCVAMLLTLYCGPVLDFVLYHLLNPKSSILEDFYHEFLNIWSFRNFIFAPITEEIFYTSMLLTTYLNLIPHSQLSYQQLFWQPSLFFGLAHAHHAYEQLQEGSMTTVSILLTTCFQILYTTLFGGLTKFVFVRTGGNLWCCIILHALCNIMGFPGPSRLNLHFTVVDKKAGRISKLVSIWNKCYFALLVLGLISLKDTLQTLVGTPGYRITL
MT1-MMP act inh: blockers of MT1-MMP proenzyme processing, primary screen, HT1080 RFP-PRO-GFP cells, GFP/RFP fluorescence; Matrix metalloproteinase-14 (Homo sapiens), P50281; GFP/RFP ratio fluorescence, overnight; percent of plate control window, DMSO zero; GFP/RFP ratio change, % at 20 µM; hit rate 0.061% among 360,000; AID 651647, 2012;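 active = GFP/RFP ratio change of at least 30% with cell ATP level not reduced by more than half and red fluorescence within 50% of control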; note: strong numbers were not always called active
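Compound: 20 µM single dose, 1% DMSO / System: HT1080 RFP-PRO-GFP cells / Controls: DMSO and RFP-L50D-GFP cell wells / Read-out basis: GFP/RFP fluorescence ratio / Schedule: overnight compound exposure at 37 °C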
MT1-MMP act inh RFP: second read-out of MT1-MMP act inh, no call of its own (marks repeat the call); RFP signal change, %; measured here: RFP expression control read;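 0 = vehicle wells; hits needed this value within 50% of zero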
* marks the source's active call; other numbers are inactive results; i = inactive; ? = inconclusive; . = not tested or not shown.

SMILES | UUG fidelity | eIF4H inh | PABP FP inh | CSC inhib | Env fusion inh | Rce1 inh | MT1-MMP act inh | MT1-MMP act inh RFP
O=C(COC(=O)COc1ccc2ccccc2c1)Nc1cc(C(F)(F)F)ccc1N1CCOCC1 | . | -9 | 7 | 4 | 5 | i | -1 | 0
Cc1cc(C)c2c(=O)[nH]c(SCC(=O)NCc3ccccc3)nc2n1 | -33 | -2 | -6 | -5 | . | i | 0 | 4
COc1cccc2[nH]c3c(=O)n(CCN(C)C)cnc3c12 | -25 | 0 | -15 | -13 | . | ? | 6 | 2
O=C(Cn1c(CN2CCCCC2)nc2ccccc2c1=O)NC1CCCCC1 | -7 | -11 | -2 | -12 | . | i | 5 | 4
O=C(Oc1ccc(Br)cc1C(=S)N1CCOCC1)c1ccc([N+](=O)[O-])cc1[N+](=O)[O-] | -13 | 2 | 14 | . | -7 | i | 1 | 6
CC(=O)Nc1ccc(NC2(C)C(=O)c3ccccc3C2=O)cc1 | -19 | -12 | 7 | -8 | . | i | 2 | 4
CCC(C)Sc1nc2c(cnn2-c2ccc(C)c(C)c2)c(=O)[nH]1 (stereo not given) | -12 | 8 | -4 | 13 | -2 | i | -1 | 1
Cc1cccc(NC(=O)CSc2cccc3cccnc23)c1C | -18 | -1 | -6 | -11 | -9 | i | 4 | -1
Cc1ccc(C2=NOC(c3nnc(-c4ccccc4)o3)C2)cc1 (stereo not given) | -5 | . | . | -14 | 2 | i | 5 | -2
O=C(c1ccco1)N1CCN(C(=S)Nc2ccc(F)c(Cl)c2)CC1 | -30 | -8 | -8 | -10 | 11 | i | 2 | 4
OCCNNC(=S)NC1CC2C=CC1C2 (stereo not given) | . | 0 | -1 | -10 | 8 | i | 1 | 8
COc1cccc(/C=N/NC(=O)c2cccc3ccccc23)c1 | -12 | -10 | 1 | 3 | -1 | i | -5 | -2
COc1cc(C)ccc1OCc1cc(C(=O)N(Cc2c(C)nn(C)c2C)C2CC2)no1 | 9 | 6 | 14 | -14 | -31 | i | 0 | -19
CCN(CC)S(=O)(=O)c1cccc2cccnc12 | . | 4 | 6 | -7 | -20 | i | 2 | 4
CCOc1ccccc1CNC(=O)Cn1nc(C)c2c(C)n(-c3ccc(C)cc3)nc2c1=O | -8 | . | . | -1 | . | i | 1 | -31
Cc1nc(-c2ccc(NC(=O)C3CC3)cc2)cs1 | -12 | 3 | 4 | 3 | -62 | i | 5 | 1
O=C(CN1C(=O)C2CCCCC2C1=O)OCC(=O)c1ccc(Cl)s1 (stereo not given) | -12 | -3 | -7 | -8 | 7 | i | 0 | 3
COc1ccc(Nc2nc(N3CCCCC3)nc(N3CCCCC3)n2)c(OC)c1 | -1 | 3 | 6 | -1 | -12 | i | 2 | -3
COc1ccc(CCN(C)C2CCCN(S(=O)(=O)c3ccc(C)cc3)C2)cc1OC (stereo not given) | 2 | -4 | -4 | -5 | 6 | i | 0 | -3
O=S(=O)(NCCC(c1ccc(F)cc1)c1ccco1)c1ccccc1 (stereo not given) | . | -9 | -23 | 0 | 5 | i | 0 | -1
COCCCNC(=O)c1c[nH]c2ccc(S(=O)(=O)N3CCC(C)CC3)cc2c1=O | . | -3 | 6 | -7 | -2 | i | -5 | 0
O=C(OCCN1CCOCC1)c1cccs1 | -9 | 1 | 1 | -13 | -6 | i | 4 | 5
CCn1c(=NC(=O)CSC(C)=O)sc2cc(F)ccc21 | -2 | -1 | -12 | 4 | . | i | 4 | 6
O=C(O)c1ccccc1-n1cccc1C(=O)O | -7 | 12 | 17 | -4 | 5 | i | -1 | -2
Cc1ccc(CNC(=O)c2ccc(N(C)S(=O)(=O)c3ccccc3)cc2)cc1 | -1 | -8 | -2 | . | -22 | i | -4 | -3
CC(C)COC(=O)N1CCCC1C(=O)Nc1nccs1 (stereo not given) | -2 | -8 | 31 | 2 | . | i | 0 | 1
COc1ccc(C(=O)COC(=O)CN2C(=O)C3C4CCC(C4)C3C2=O)cc1 (stereo not given) | -15 | 13 | 17 | . | 1 | i | -2 | -1
O=C(NCc1ccccc1)c1ccc(C(=O)N(C2CCCCC2)C2CCCCC2)cc1 | -17 | -2 | 2 | 17 | ? | i | -14 | -10
CC(Sc1nc2ccccc2c(=O)n1C)C(=O)NC1CCCCC1C (stereo not given) | -17 | . | . | 8 | . | i | 8 | -28
COCOCCn1cc(CN2CCS(=O)(=O)N(Cc3ccc(-c4ccc(Cl)cc4)cc3)C(C)C2=O)nn1 (stereo not given) | -14 | . | . | . | 57* | . | 0 | -11
COc1ccccc1/C=C/c1nc(S(=O)(=O)c2ccccc2)c(N2CCC(C(N)=O)CC2)o1 | 7 | -4 | 5 | -16 | 9 | i | -5 | 0
CC1(c2cccc3ccccc23)NC(=O)N(CC(=O)NC2CCS(=O)(=O)C2)C1=O (stereo not given) | . | -7 | 8 | -11 | 17 | i | 3 | 5
CSCC[C@H](NC(=O)[C@H]1CC[C@H](CNC(=O)[C@@H]2CCCN2)CC1)C(=O)O | -8 | 6 | -10 | -11 | -13 | i | -2 | 4
CCn1cc(C(=O)NC2CCCCCC2)c(=O)c2ccc(C)nc21 | 3 | -5 | -3 | -6 | -1 | i | 1 | -10
Cc1ccc(NC(=S)Nc2ccc(Br)cc2)cc1 | -15 | 4 | -1 | . | . | i | 0 | -3
CC1=CC(C)(C)N2C(=O)C3(C(C#N)=C(N)OC4=C3C(=O)CC(C)(C)C4)c3cc(C)cc1c32 (stereo not given) | -11 | 2 | 12 | -9 | -20 | i | 11 | -2
CSc1cccc(NC(=S)N(CCC(C)C)C2CCN(C(C)=O)CC2)c1 | . | 5 | 3 | -9 | 9 | i | -2 | -1
S=c1[nH]nc(-c2cc(-c3ccsc3)n[nH]2)n1-c1cccc2ccccc12 | -15 | 8 | 1 | -12 | 2 | . | -2 | 3
CCOC(=O)C1=C(CN2CCN(C(=O)c3ccco3)CC2)NC(=O)NC1c1ccc(OC)cc1 (stereo not given) | -12 | -6 | -11 | -19 | -6 | i | -1 | 1
O=C(Cn1ccc([N+](=O)[O-])n1)Nc1ccccn1 | . | -11 | 5 | . | -9 | i | -4 | 2
O=C(c1cccc(S(=O)(=O)N2CCc3ccccc32)c1)N1CCN(c2ccccn2)CC1 | . | -8 | 1 | -14 | -5 | i | -5 | -9
COC(=O)CNC(c1ccccc1)c1cc(Br)ccc1NC(=O)OCc1ccccc1 (stereo not given) | -7 | 0 | -3 | -2 | . | i | -18 | -18
FC(F)(F)C(F)(F)C(F)(F)c1nnc2ccc(N3CCOCC3)nn12 | -11 | -5 | 3 | -13 | . | . | 11 | 7
COc1ccc(C(=O)NNC2=Nc3cccc4cccc2c34)cc1 | . | 9 | 9 | 13 | 7 | i | -12 | -7
O=C(c1cccc(F)c1)N1CCN(Cc2ccc3c(c2)OCO3)CC1 | -10 | -2 | -13 | 4 | 17 | i | 3 | 0
O=C(Nc1ccc(-c2csc(Nc3cccc(C(F)(F)F)c3)n2)cc1)c1ccccc1 | -19 | -11 | 2 | 136* | 33 | i | 11 | -7
O=C(COC(=O)/C=C/c1ccco1)NC1CCCCC1 | 0 | . | . | -11 | 5 | . | 2 | 7
COc1ccc(C(CNC(=O)C(C)(C)Oc2ccc(Cl)cc2)N2CCCCC2)cc1 (stereo not given) | -21 | -4 | 10 | 3 | 11 | i | -2 | 0
Nc1cc(C(=O)O)ccc1N1CCCCCC1 | -7 | 7 | 10 | -9 | . | i | 2 | 3
COC(=O)Nc1ccc(S(=O)(=O)N2CCCC(C(=O)N3CC(C)OC(C)C3)C2)cc1 (stereo not given) | -6 | -8 | 2 | 2 | -1 | i | -1 | 3
(further entries)
SMILES | UUG fidelity | eIF4H inh | PABP FP inh | CSC inhib | Env fusion inh | Rce1 inh | MT1-MMP act inh | MT1-MMP act inh RFP
Cc1cccc(C(=O)NCCC(=O)Nc2ccc(F)c([N+](=O)[O-])c2)c1 | -3 | -5 | 6 | 1 | 0 | i | 6 | 0
O=C(Cc1ccccc1F)Nc1ccccc1N1CCCC1 | -11 | -3 | 2 | . | 28 | i | -2 | -1
COc1ccc(NC(=O)c2ccc3c(c2)NC(=O)CS3)cc1S(=O)(=O)Nc1ccc(Br)cc1 | 0 | -1 | 3 | 80* | -43 | i | 5 | 2
COc1ccc(NC(=S)N(CCN2CCOCC2)C2CCN(C(C)=O)CC2)cc1Cl | -19 | -7 | -4 | -22 | 18 | i | -2 | -1
COc1ccc(C2=Nn3c(nnc3C3CCCCC3)SC2)cc1OC | -4 | 3 | -6 | -10 | -15 | i | -1 | -6
OCCn1c(-c2ccc3c(c2)OCO3)csc1=Nc1ccccc1 | -9 | 1 | 10 | 4 | 7 | i | -7 | -16
Brc1ccc2nc(CSc3ncn[nH]3)cn2c1 | . | -13 | -5 | -9 | . | i | 6 | 3
COc1ccccc1OCC(=O)NCCSCc1ccccc1Cl | . | -1 | 2 | -17 | -6 | i | 1 | 2
O=C(Cn1c(=O)oc2ccccc21)Nc1n[nH]c(=S)s1 | . | 9 | 12 | -1 | -10 | i | 1 | 2
O=C1CN(C(=O)COC(=O)CCC(=O)c2ccc(Cl)cc2)c2ccccc2N1 | -15 | . | . | -11 | . | . | -1 | 0
CC(NC(=O)c1ccccc1NS(=O)(=O)c1ccc(CCC(=O)O)cc1)c1ccccc1 (stereo not given) | -12 | -10 | 0 | 3 | 4 | i | -2 | 2
O=C(CSc1nnc(-c2ccccc2)n1-c1ccccc1)NCc1ccco1 | . | 0 | -4 | -20 | -12 | i | 1 | 0
CCOC(=O)C1=C(N)Oc2cc(O)ccc2C1c1ccc(Br)cc1 (stereo not given) | -11 | 4 | -1 | 17 | 20 | i | -1 | -2
Cc1c(NC(=O)/C(C#N)=C/c2ccc(-c3cccc(Cl)c3)o2)c(=O)n(-c2ccccc2)n1C | . | -1 | 4 | 5 | -1 | i | -3 | -18
N=c1ncn(CC(O)CO)c2nc(N3CCOCC3)[nH]c12 (stereo not given) | 4 | -2 | -2 | 4 | . | i | 6 | 6
CC(C)Cn1c(N)c(C(=O)COC(=O)CCNS(=O)(=O)c2ccccc2)c(=O)n(C)c1=O | -1 | . | . | -2 | -2 | i | 4 | -7
CCOC(=O)C1CCN(C(=O)COC(=O)CCOc2ccc(C)cc2)CC1 | -7 | -3 | 10 | 10 | -1 | i | -4 | -2
O=C(c1n[nH]c(=O)c2ccccc12)N1CCN(c2ccc(F)cc2)CC1 | -34 | 0 | 3 | 1 | . | i | 0 | -1
COCCN(C(=O)CSc1ncccn1)c1c(N)n(Cc2ccccc2)c(=O)[nH]c1=O | 1 | . | . | 0 | . | i | 5 | 0

Full records as entered above:
`O=C(CSc1nnc(-c2ccccc2)n1-c1ccccc1)NCc1ccco1` is listed with UUG fidelity = .; eIF4H inh = 0; PABP FP inh = -4; CSC inhib = -20; Env fusion inh = -12; Rce1 inh = i; MT1-MMP act inh = 1; MT1-MMP act inh RFP = 0
`Cc1c(NC(=O)/C(C#N)=C/c2ccc(-c3cccc(Cl)c3)o2)c(=O)n(-c2ccccc2)n1C` is listed with UUG fidelity = .; eIF4H inh = -1; PABP FP inh = 4; CSC inhib = 5; Env fusion inh = -1; Rce1 inh = i; MT1-MMP act inh = -3; MT1-MMP act inh RFP = -18

Hits appear at their usual frequency; any-hit rate near 2.9%.
